High-throughput results (PubChem BioAssay)
USP2a inh – qHTS Assay for Inhibitors of Ubiquitin-specific Protease USP2a; USP2a enzymatic assay, qHTS inhibition; Potency, µM (highest dose often 38.3 µM), without a hit: at the top dose activity change, negative = inhibition, usual class: inhibitors; actives 0.1% (n = 60,000); AID 927, 2007;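 further: potency means the concentration at half of the fitted maximal effect; nearly all actives have a fitted effect of over 60% in size; plate controls were DMSO for no effect and NEM full inhibition control for full effect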
Target sequence (O75604 whole entry, looked up): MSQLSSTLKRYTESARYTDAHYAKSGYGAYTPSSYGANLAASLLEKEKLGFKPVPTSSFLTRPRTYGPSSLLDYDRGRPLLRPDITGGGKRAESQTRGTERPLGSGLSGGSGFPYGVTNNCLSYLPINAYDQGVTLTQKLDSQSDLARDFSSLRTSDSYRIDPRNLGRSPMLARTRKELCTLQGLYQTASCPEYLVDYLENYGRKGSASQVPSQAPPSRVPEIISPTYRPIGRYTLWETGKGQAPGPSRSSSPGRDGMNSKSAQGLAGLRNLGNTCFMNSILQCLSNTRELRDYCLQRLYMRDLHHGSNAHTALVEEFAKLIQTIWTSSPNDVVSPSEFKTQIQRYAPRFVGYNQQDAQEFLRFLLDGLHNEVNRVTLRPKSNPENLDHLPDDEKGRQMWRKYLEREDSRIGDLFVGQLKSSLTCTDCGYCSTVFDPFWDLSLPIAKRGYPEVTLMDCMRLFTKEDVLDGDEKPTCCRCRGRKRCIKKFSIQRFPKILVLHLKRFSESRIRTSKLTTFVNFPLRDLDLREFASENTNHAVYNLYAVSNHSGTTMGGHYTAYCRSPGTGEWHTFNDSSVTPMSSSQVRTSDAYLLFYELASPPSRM
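Coupled readout: USP2-cleaved Ub-PLA2 (20nM final) turns over NBD C6-HPC (20uM final), Ex 460nm/Em 535nm after 2.5 h, time-zero read flagging artifacts. Enzyme (20nM final, pH 8.0 Tris) given 30 min RT with compound first; NEM defines full inhibition.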
Tau fil binding – qHTS Assay for Tau Filament Binding; Potency, µM (doses to about 57.1 µM), without a hit: at the highest dose activity change, negative = inhibition; Microtubule-associated protein tau (Homo sapiens), P10636; recombinant tau filaments, thioflavin S fluorescence, 15 h; filaments grown with octadecylsulfate alongside compound; actives 2% (n = 71,000);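 further: potency means the concentration at half of the fitted maximal effect; on the % scale 0 is the no-effect control and ±100 the full control effect; actives lower thioflavin S fluorescence by blocking filaments or displacing dye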
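Quantitative HTS: thioflavine S signal from ODS-induced tau filaments, excited at 450 nm, emission 510 nm. Conditions: 1 uM tau, 30 uM ODS, 15 h at 37 C, pH 7.4.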
Rhodamine autofl – qHTS Assay for Spectroscopic Profiling in Rhodamine Spectral Region; max dye-equivalent concentration, M; Rhodamine-region fluorescence, 547/598 nm, Tris buffer; hits give high values; actives 0.05% (n = 59,000); in the data active means max dye-equivalent concentration above about 11 nM; inconclusive means between about 1.1 nM and that limit
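Intrinsic compound fluorescence, ex 547 / em 598 nm, CCD imager. Tris 100 mM pH 8.0; 15 min RT. Output = rhodamine dye-equivalent concentration at each compound concentration.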
Fluorescein fluor – qHTS Assay for Spectroscopic Profiling in Fluorescein Spectral Region; Compound autofluorescence, 480/540 nm, fluorescein-equivalent; hits give high values; max fluorescein-equivalent concentration, M; actives 0.91% (n = 59,000); in the data active means max fluorescein-equivalent concentration above about 10 nM; inconclusive means between about 1.1 nM and that limit
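Normalized response (dye-equivalent concentration) derives from comparing each well's 540 nm emission, under 480 nm excitation, with plate-resident fluorescein standards. Compounds were held in 100 mM Tris, pH 8.0, for 15 min at room temperature.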
Luciferase inh – qHTS Assay for Inhibitors of Firefly Luciferase; Luciferin 4-monooxygenase (Photinus pyralis), P08659; purified firefly luciferase, luminescence, 8 min; Potency, µM (series often up to 57.1 µM), without a hit: at the highest dose activity change, negative = inhibition, most hits filed as inhibitors; actives 2.2% (n = 72,000); further: potency means the concentration at half of the fitted maximal effect; on the % scale 0 is the no-effect control and ±100 the full control effect; nearly all actives have a fitted effect of over 40% in size
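Substrate buffer containing 10 uM ATP (pH 7.2 imidazole, Mg2+, KCl, detergent, BSA) is dispensed, compound pinned in, then luciferase/luciferin detector mix added. After 8 min at ambient temperature, light output is measured.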
Texas Red fluor – qHTS Assay for Spectroscopic Profiling in Texas Red Spectral Region. Compound fluorescence, Texas Red channel, 547/618 nm; hits give high values. max dye-equivalent concentration, M. actives 0.06% (n = 59,000); in the data active means max dye-equivalent concentration above about 10 nM; inconclusive means between about 1.1 nM and that limit
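qHTS profiling of intrinsic compound fluorescence; 100 mM Tris pH 8.0; 15 min RT; ex 547 / em 618 nm; response expressed as Texas Red dye-equivalent concentration from six-point plate standard.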
ERK AVP inh – qHTS Assay for Inhibitors of the ERK Signaling Pathway using a Homogeneous Screening Assay. HEK293-V1b, vasopressin-stimulated pERK AlphaScreen. Potency, µM (top dose mostly 57.5 µM), inactives show at the highest dose activity, negative = inhibition, hits mostly inhibitors. actives 0.99% (n = 72,000). AID 995, 2007; further: potency means the concentration at half of the fitted maximal effect; on the % scale 0 is the no-effect control and ±100 the full control effect; nearly all actives have a fitted effect of over 55% in size
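qHTS, compounds titrated on V1b-expressing HEK293 cells. Preincubation 30 min at 37C, vasopressin 25 nM for 5 min, lysis 10 min, bead incubation 5 hr at room temperature.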
* hit, by the source's call; i = inactive; ? = inconclusive; / = not tested or not shown; & = joins results of further samples; [ ] = remark or other dose. Unless noted, the call rests on the fitted dose curve; in most records, active means well fitted curve in the direction sought with a large enough effect; inconclusive means small, poorly fitted or top-dose-only effect, or another doubt; inactive means no such curve, though single readings can be large; an effect the other way counts as inactive or inconclusive. This is a subset; count on the stated rates, not on these rows.

Codes: A = USP2a inh; B = Tau fil binding; C = Rhodamine autofl; D = Fluorescein fluor; E = Luciferase inh; F = Texas Red fluor; G = ERK AVP inh
structure: COc1ccccc1C1/C(=C(/O)c2ccccc2)C(=O)C(=O)N1CC(C)O (stereo not given)
  A = 1% | B = -7% | C = i | D = ? | E = 1% | F = i | G = 22%

structure: Cc1ccsc1C1C=C(c2cccc(Br)c2)Nc2ncnn21 (stereo not given)
  A = 41%[activator] | B = 308% | C = i | D = ? | E = 0% | F = i | G = 1%

structure: Cc1sc2ncnc(Sc3nnc4sc5ccccc5n34)c2c1C
  A = -6% | B = 3% | C = i | D = i | E = 1% | F = i | G = 9%

structure: CC(=O)[C@@]1(O)CC[C@H]2[C@H]3C[C@@H](C)C4=CC(=O)C=C[C@]4(C)[C@@]3(F)[C@@H](O)C[C@]21C
  A = 10%[17.1 µM] | B = -2%[25.6 µM] | C = i | D = ? | E = 6%[25.5 µM] | F = i | G = -7%[25.7 µM]

structure: CC1(C)CC(=O)c2cc(OCC(=O)NCc3cccnc3)ccc2O1
  A = 3% | B = -6% | C = i | D = i | E = -4% | F = i | G = 9%

structure: COc1ccccc1OCc1nnc(SCC(=O)Nc2ccc(C)cc2)n1C
  A = 7% | B = -7% | C = i | D = ? | E = -1% | F = i | G = 16%

structure: CCNc1oc(-c2cccc3ccccc23)nc1C#N
  A = -3% | B = 72% | C = i | D = ? | E = -7% | F = i | G = 6%

structure: Nc1cccc(N)c1
  A = / | B = 114% | C = / | D = / | E = / | F = / | G = 10%

structure: CCOc1cc(S(=O)(=O)NCCN2CCOCC2)c(C)cc1C
  A = 4% | B = -17% | C = i | D = i | E = 0% | F = ? | G = -6%

structure: CC1(C)NC(=O)N(CNc2cc(Cl)ccc2Cl)C1=O
  A = -8% | B = -1% | C = i | D = ? | E = -2% | F = i | G = -11%

structure: O=C(O)c1ccccc1
  A = / | B = 8% | C = / | D = / | E = / | F = / | G = -4%

structure: COc1cc(C(=O)OC2CCCCC2=O)cc(OC)c1C (stereo not given)
  A = -26% | B = -5% | C = i | D = ? | E = 0% | F = ? | G = -4%

structure: CCNc1ncc2nc(-c3ccc(F)cc3)c(=O)n(CCc3ccccc3)c2n1
  A = 42%[activator] | B = ? | C = i | D = ? | E = 0%[11.4 µM] | F = i | G = ?

structure: COc1ncnc(NS(=O)(=O)c2ccc(N)cc2)c1OC
  A = -2%[17.1 µM] | B = -8%[25.6 µM] | C = i | D = ? | E = 6%[25.5 µM] | F = i | G = -4%[25.7 µM]

structure: CC(C)(C)NC(=O)[C@H]1CC[C@H]2[C@@H]3CC[C@H]4NC(=O)C=C[C@]4(C)[C@H]3CC[C@]12C
  A = 11% | B = / | C = / | D = / | E = / | F = / | G = -4%

Some of these compounds in order of count of non-hydrogen atoms, lowest first.
Codes: A = USP2a inh; B = Tau fil binding; C = Rhodamine autofl; D = Fluorescein fluor; E = Luciferase inh; F = Texas Red fluor; G = ERK AVP inh
structure: O=C(O)c1ccccc1
  A = / | B = 8% | C = / | D = / | E = / | F = / | G = -4%

structure: CC1(C)NC(=O)N(CNc2cc(Cl)ccc2Cl)C1=O
  A = -8% | B = -1% | C = i | D = ? | E = -2% | F = i | G = -11%

structure: Cc1ccsc1C1C=C(c2cccc(Br)c2)Nc2ncnn21 (stereo not given)
  A = 41%[activator] | B = 308% | C = i | D = ? | E = 0% | F = i | G = 1%

structure: CCOc1cc(S(=O)(=O)NCCN2CCOCC2)c(C)cc1C
  A = 4% | B = -17% | C = i | D = i | E = 0% | F = ? | G = -6%

structure: Cc1sc2ncnc(Sc3nnc4sc5ccccc5n34)c2c1C
  A = -6% | B = 3% | C = i | D = i | E = 1% | F = i | G = 9%

structure: COc1ccccc1C1/C(=C(/O)c2ccccc2)C(=O)C(=O)N1CC(C)O (stereo not given)
  A = 1% | B = -7% | C = i | D = ? | E = 1% | F = i | G = 22%

structure: CCNc1ncc2nc(-c3ccc(F)cc3)c(=O)n(CCc3ccccc3)c2n1
  A = 42%[activator] | B = ? | C = i | D = ? | E = 0%[11.4 µM] | F = i | G = ?

(next part)
Codes: A = USP2a inh; B = Tau fil binding; C = Rhodamine autofl; D = Fluorescein fluor; E = Luciferase inh; F = Texas Red fluor; G = ERK AVP inh
structure: C[C@@]12C(=O)OC(=O)[C@@]1(C)C1CCC2O1
  A = -9% | B = / | C = / | D = / | E = / | F = / | G = 3.2µM*

structure: CCNc1ncc2nc(-c3ccccc3)c(=O)n(Cc3cccs3)c2n1
  A = 130%[activator] | B = 98% | C = i | D = i | E = 1%[11.4 µM] | F = i | G = -5%

structure: Cc1nc2nc(-c3ccccc3)cn2nc1C
  A = -3% | B = 304% | C = i | D = i | E = 13µM* | F = i | G = 9%

structure: CC1CCN(c2oc(-c3cccc4ccccc34)nc2C#N)CC1
  A = 1% | B = 12% | C = i | D = i | E = 2% | F = ? | G = 14%

structure: CC(=O)C1=C(C)NC(C)=C(C(C)=O)C1c1ccc(-c2ccccc2Cl)o1
  A = 40%[activator] | B = 100% | C = / | D = / | E = 1% | F = / | G = -28%

structure: C[C@]12CCC(=O)C=C1CC[C@@H]1[C@@H]2C(=O)C[C@@]2(C)[C@H]1CC[C@]2(O)C(=O)CO
  A = 9% | B = / | C = i | D = ? | E = 0%[25.5 µM] | F = i | G = 35%

structure: CN[C@H]1CC[C@@H](c2ccc(Cl)c(Cl)c2)c2ccccc21
  A = 2% | B = / | C = / | D = / | E = / | F = / | G = /

structure: COC(=O)c1cc2c(=O)n3ccccc3nc2n(C(C)C)c1=N
  A = -5% | B = 24% | C = i | D = i | E = 4% | F = i | G = -7%

structure: O=c1c(-c2ccc(Cl)cc2)nc2cnc(N3CCOCC3)nc2n1Cc1ccc(F)cc1
  A = 117%[activator] | B = -7% | C = i | D = i | E = 0%[11.4 µM] | F = i | G = -3%

structure: COc1ccc2cc(C#N)c(N3CCN(Cc4nnnn4CCC(C)C)CC3)nc2c1
  A = 8% | B = -20% | C = i | D = i | E = -1% | F = i | G = 21%

structure: CC(O)C(=O)O (stereo not given)
  A = / | B = 4% | C = / | D = / | E = / | F = / | G = 1%

structure: CCNc1ncc2nc(-c3cccs3)c(=O)n(Cc3cccc(OC)c3)c2n1
  A = 133%[activator] | B = 134% | C = i | D = ? | E = 1%[11.4 µM] | F = i | G = -2%

structure: COc1cc2c(cc1OC)-c1cc(N3CCCc4ccccc43)nc(=O)n1CC2
  A = 22% | B = 50% | C = i | D = ? | E = -2% | F = i | G = 20µM*

structure: Clc1ccccc1-c1nc(-c2ccccc2)n[nH]1
  A = / | B = -6% | C = i | D = ? | E = 16µM* | F = i | G = -11%

structure: CN(C)S(=O)(=O)NCc1ccc2c(c1)OCO2
  A = -1% | B = -4% | C = i | D = i | E = 0% | F = i | G = -8%

structure: CNC[C@H](O)c1ccc(O)c(O)c1
  A = 1%&-3% | B = -4%&3% | C = i | D = i | E = 0%&-3% | F = ? | G = ?

structure: COc1ccccc1N1CCN(Cc2nc3ccccc3c(=O)n2CC(C)=O)CC1
  A = 3% | B = -37% | C = i | D = ? | E = 1% | F = i | G = 8%

structure: CSc1ccc(C2NC(=O)c3c(sc4c3CCN(C)C4)N2)cc1 (stereo not given)
  A = / | B = ? | C = / | D = / | E = -6% | F = / | G = -14%

Complete entries, quoted from the list. Order of screens: USP2a inh | Tau fil binding | Rhodamine autofl | Fluorescein fluor | Luciferase inh | Texas Red fluor | ERK AVP inh
Shown for CC1(C)NC(=O)N(CNc2cc(Cl)ccc2Cl)C1=O : -8% | -1% | i | ? | -2% | i | -11%
Shown for COc1cc2c(cc1OC)-c1cc(N3CCCc4ccccc43)nc(=O)n1CC2 : 22% | 50% | i | ? | -2% | i | 20µM*
Shown for Clc1ccccc1-c1nc(-c2ccccc2)n[nH]1 : / | -6% | i | ? | 16µM* | i | -11%
